Compound activity as filed in PubChem BioAssay.
Sfp inh = qHTS Assay for Inhibitors of Bacillus subtilis Sfp phosphopantetheinyl transferase (PPTase); actives 3.5% (n = 310,000); AID 1490, 2009; Biochemical Sfp PPTase activity, qHTS; 4'-phosphopantetheinyl transferase ffp (Bacillus subtilis), Q9F4F7; Potency, µM, without a hit: max response, negative = inhibition, hits mostly inhibitors; active = well fitted inhibition curve with a large enough effect; inconclusive = small, poorly fitted or top-dose-only effect, or another doubt; inactive = no such curve, though single readings can be large or run the other way;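 note: the enzyme is Sfp with the accession as filed and its product quenches rhodamine fluorescence; potency is the fitted concentration of half-maximal effect; 0% = enzyme reaction without inhibitor and -100% = no enzyme wells; top concentration of the series not given in the record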
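Sfp 15 nM + cpd, 15 min RT; start w/ rhodamine-CoA 5 uM, BHQ-2-YbbR 12.5 uM (final); 50 mM Hepes pH 7.6, 10 mM MgCl2, 0.01% NP-40, 0.01% BSA; read 525/598 nm at 0 and 30 min.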
gsp antag = qHTS for Antagonists of gsp, the Etiologic Mutation Responsible for Fibrous Dysplasia/McCune-Albright Syndrome: qHTS; gsp-mutant cells, cAMP HTRF, 30 min; control for the full effect not named in the record; Potency, µM (doses to about 76.9 µM), inactives show at the highest dose activity change, negative = inhibition, most hits filed as inhibitors; actives 0.4% (n = 340,000); active = falling curve of any shape with a large fitted effect; inconclusive = falling curve, mostly with a smaller effect; inactive = flat or rising curve; cell line not stated here;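 note: intracellular cAMP measured with PDE inhibitor Ro 20-1724 present during compound exposure; potency is the fitted concentration of half-maximal effect; % is set by controls: 0 for no effect and ±100 for the full control effect; nearly all actives have a fitted effect of over 65% in size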
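HTRF cAMP read-out (cAMP-d2 plus anti-cAMP antibody-K in lysis buffer, 30 min RT). Before lysis, cells are exposed to compounds with […] for 30 min at 37C in DPBS containing Ca/Mg, BSA and Tween 20.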
ClpP mod = qHTS Assay for Activators of ClpP. ATP-dependent Clp protease proteolytic subunit (Bacillus subtilis (strain 168)), P80244. actives 1.9% (n = 340,000). purified B. subtilis ClpP, FRET peptide cleavage, 20 min. AID 651965, 2013. Potency, µM (highest dose often 57.5 µM), without a hit: at the highest dose activity change, negative = active; active = well fitted falling curve with a large enough effect; inconclusive = small, poorly fitted or top-dose-only effect; inactive = no such curve, though single readings can be large or run the other way; note: potency is the fitted concentration of half-maximal effect; the source files actives as falling curves though it sought activators and does not explain the sign; nearly all actives have a fitted effect of over 65% in size; many hits overshoot -100%
Target sequence (P80244 whole entry, looked up): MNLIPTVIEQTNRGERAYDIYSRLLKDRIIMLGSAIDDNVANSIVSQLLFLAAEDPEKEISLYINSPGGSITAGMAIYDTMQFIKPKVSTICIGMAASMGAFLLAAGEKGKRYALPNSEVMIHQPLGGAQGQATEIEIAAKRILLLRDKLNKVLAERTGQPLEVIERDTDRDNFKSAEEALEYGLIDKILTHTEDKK
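Buffer: 100 mM Tris/HCl pH8, 100 mM KCl, 0.05% low protease BSA, 2.5% glycerol, 0.01% Tween-20. ClpP 10 microg/mL final; 20 min RT; delta FRET normalized to ADEP and DMSO controls.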
Menin-MLL FL inh = qHTS Assay for Inhibitors Targeting the Menin-MLL Interaction in MLL Related Leukemias: Competition With Fluorescein Labeled MLL-derived Peptide; Fluorescence polarization, fluorescein-MLL peptide displacement from menin; FP activity change, % at 61.4 µM; 290,000 tested, under 10 active; AID 1766, 2009; inconclusive = falling polarisation curve, or a change in total fluorescence; inactive = total fluorescence flat and polarisation flat or rising; no compound was filed as active; the % refers to the polarisation; negative = inhibition;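 note: % of control where 0% means no effect; inhibitors lower the polarisation; unlabelled MLL peptide was the positive control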
gsp ag = qHTS for Agonist of gsp, the Etiologic Mutation Responsible for Fibrous Dysplasia/McCune-Albright Syndrome: qHTS. gsp mutant cells, cAMP HTRF, 30 min; control for the full effect not named in the record. Potency, µM (doses to about 76.9 µM), for inactives: top-dose activation (cAMP increase), usual class: activators. actives 0.13% (n = 340,000). AID 624287, 2012; active = well fitted activation curve with a large enough effect; inconclusive = small, poorly fitted or top-dose-only effect, or another doubt; inactive = no such curve, though single readings can be large or run the other way; cell line not stated here;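 note: phosphodiesterase inhibitor Ro 20-1724 added with compounds to block cAMP breakdown; potency is the fitted concentration of half-maximal effect; nearly all actives have a fitted effect of over 60% in size; about a fifth of the inactives were tested at one dose only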
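Cells stably selected in G418 were plated at 2000/well, grown 16-24 hr, then given compounds in DMSO with the PDE inhibitor […] (300 uM solution added) for 30 min at 37C; cAMP was read by HTRF.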
D2 PAM = Beta-Arrestin HTS for Positive Allosteric Modulators of the Human D2 Dopamine Receptor: Potentiators; D(2) dopamine receptor (Homo sapiens), P14416; DiscoveRx D2 beta-arrestin cells, luminescence, 90 min; 100% = 57 uM dopamine signal; potentiation, % (concentration not given with the values); actives 0.23% (n = 360,000); active = potentiation of 50% or more; inconclusive = 30% to 50%; inactive = 30% or less;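 note: compound concentration not given in the record; tested on top of an EC20 dose of dopamine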
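D2 cells co-treated with compound plus 50 nM dopamine (EC20) for 90 min at 37 deg C to detect potentiation. Beta-arrestin recruitment was read as enzyme-fragment luminescence after 1 h at ambient temperature. Full response was set by 57 uM dopamine.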
TRPV1 PAM = HTS Assay for Compounds that Act as Potentiators of the Vanilloid Receptor 1 | Transient receptor potential cation channel subfamily V member 1 (Homo sapiens), Q8NER1 | TRPV1-expressing cells, Fluo-8 calcium influx, capsaicin EC20 potentiation; host cell line not named in the record; control for the full effect not named in the record | potentiation, % at 8.33 µM | actives 0.02% (n = 320,000) | AID 540277, 2011; active means potentiation above 80%; inconclusive means 30% to 80%; inactive means below 30%; note: 0% is about no effect
Target sequence (Q8NER1 whole entry, looked up): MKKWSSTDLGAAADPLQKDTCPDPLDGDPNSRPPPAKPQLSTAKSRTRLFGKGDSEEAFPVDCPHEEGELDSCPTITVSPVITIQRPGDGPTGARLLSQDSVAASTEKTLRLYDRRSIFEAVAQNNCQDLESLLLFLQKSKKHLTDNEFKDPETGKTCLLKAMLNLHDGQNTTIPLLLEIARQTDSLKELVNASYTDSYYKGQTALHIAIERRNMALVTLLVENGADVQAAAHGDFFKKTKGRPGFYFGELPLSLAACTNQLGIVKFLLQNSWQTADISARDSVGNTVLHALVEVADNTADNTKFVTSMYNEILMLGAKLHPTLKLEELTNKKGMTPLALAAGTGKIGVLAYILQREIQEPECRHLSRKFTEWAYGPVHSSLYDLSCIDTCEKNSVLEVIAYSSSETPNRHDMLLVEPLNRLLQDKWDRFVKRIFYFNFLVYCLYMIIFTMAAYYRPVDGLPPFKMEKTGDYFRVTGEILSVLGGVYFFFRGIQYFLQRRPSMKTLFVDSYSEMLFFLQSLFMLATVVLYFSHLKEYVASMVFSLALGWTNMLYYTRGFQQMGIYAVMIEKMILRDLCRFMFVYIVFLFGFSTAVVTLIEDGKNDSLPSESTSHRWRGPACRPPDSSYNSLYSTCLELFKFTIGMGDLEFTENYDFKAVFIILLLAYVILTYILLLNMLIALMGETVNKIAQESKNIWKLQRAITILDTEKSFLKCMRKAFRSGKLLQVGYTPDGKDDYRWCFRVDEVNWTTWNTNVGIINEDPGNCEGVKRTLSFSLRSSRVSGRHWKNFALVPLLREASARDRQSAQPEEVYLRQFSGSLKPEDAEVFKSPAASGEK
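Fluo-8 calcium influx in TRPV1-expressing cells, kinetic read (ex 480/em 520 nm). Compound added and read 3 min for agonist activity, followed by capsaicin at EC20 final and 2 min further read for enhancement.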
* hit, by the source's call; ? = inconclusive; . = not tested or not shown; & = joins results of further samples; [ ] = remark or other dose.

Results follow in this order: Sfp inh	gsp antag	ClpP mod	Menin-MLL FL inh	gsp ag	D2 PAM	TRPV1 PAM
- O=C(NCC1CCCN(Cc2ccccc2F)C1)c1cccc(C(F)(F)F)c1 (stereo not given)
→ -2%	-4%	0.0%	-1.2	?	-10	-14
- Nc1cc(N)nc(SCC(=O)Nc2ccccc2)n1
→ 4%	4%	0.6%	-0.6	-25%	-4	18
- COc1ccc(-c2csc(NC(=O)c3cccc(N4C(=O)CCC4=O)c3)n2)cc1OC
→ .	-4%	1.2%	.	-55%[inhibitor]	10	9
- CCN(CC)CCCOC(=O)C1(c2ccccc2)CCCC1
→ -18%	-6%	-2.9%	-6.3	7%	-40	?
- CCOC(=O)N1N=C(c2ccccc2)CC1(O)C(C)(F)F (stereo not given)
→ 14%	0%	.	-0.4	3%	-4	2
- CCCn1c(N)cc(=O)n(CCC)c1=O
→ 18%	-2%	0.8%	-2.9	-5%	-1	?
- COc1cc(C(=O)OCC(=O)c2c(N)n(C)c(=O)n(C)c2=O)ccc1OCCC(C)C
→ 17%	13%	.	-2.0	5%[15.4 µM]	-5	0
- CCCn1c(=O)c2ccccc2n2c(SCC(=O)c3cc(C)n(CCOC)c3C)nnc12
→ 3%	6%	-0.3%	3.2	-1%	6	-6
- O=S(=O)(N/N=C/c1ccc(OC2CSC2)cc1)c1ccccc1
→ -2%	-4%	-3.0%	8.4	4%[15.4 µM]	-4	-1
- CCCCC(=O)NNC(=S)NC(=O)c1ccc(C)cc1
→ ?	2%	.	2.1	-29%	-9	12

Part of the list above in order of SMILES length, highest first.
Results follow in this order: Sfp inh	gsp antag	ClpP mod	Menin-MLL FL inh	gsp ag	D2 PAM	TRPV1 PAM
- COc1cc(C(=O)OCC(=O)c2c(N)n(C)c(=O)n(C)c2=O)ccc1OCCC(C)C
→ 17%	13%	.	-2.0	5%[15.4 µM]	-5	0
- O=C(NCC1CCCN(Cc2ccccc2F)C1)c1cccc(C(F)(F)F)c1 (stereo not given)
→ -2%	-4%	0.0%	-1.2	?	-10	-14
- CCOC(=O)N1N=C(c2ccccc2)CC1(O)C(C)(F)F (stereo not given)
→ 14%	0%	.	-0.4	3%	-4	2

The listing picks up; the two compounds before the break are reprinted first.
Results follow in this order: Sfp inh	gsp antag	ClpP mod	Menin-MLL FL inh	gsp ag	D2 PAM	TRPV1 PAM
- O=S(=O)(N/N=C/c1ccc(OC2CSC2)cc1)c1ccccc1
→ -2%	-4%	-3.0%	8.4	4%[15.4 µM]	-4	-1
- CCCCC(=O)NNC(=S)NC(=O)c1ccc(C)cc1
→ ?	2%	.	2.1	-29%	-9	12
- O=C1c2ccccc2C(Nc2ccc(Cl)cn2)N1Cc1ccccc1 (stereo not given)
→ 1%	-21%	-2.4%	3.1	-3%	-10	-8
- CCCCNC(=O)CSc1nc2ccc(C)cc2[nH]1
→ 16%	.	.	2.1	6%[15.4 µM]	1	-8
- Clc1ccc(-c2nnc(-c3ccccc3)c(-c3c[nH]c4ccccc34)n2)cc1
→ 14%	-2%	.	-2.5	-22%[15.4 µM]	-2	-12
- CCS(=O)(=O)Nc1ccc(C2=NN(S(=O)(=O)CC)C(c3cccs3)C2)cc1 (stereo not given)
→ 14%	-17%	3.9%	.	6%	1	-10
- Nc1sc(-c2ccccc2)cc1C(=O)O
→ -11%	.	.	6.6	.	.	-5
- CCc1ccc(N(CC(=O)NC2CCCCC2)C(=O)CNC(=O)c2ccco2)cc1
→ 5%	6%	-1.1%	2.7	5%[15.4 µM]	-8	1
- Cn1cccc1Cc1nnc(SCC(=O)Nc2ccccc2F)n1CCc1ccccc1
→ -11%	-7%	3.0%	0.2	-57%[inhibitor]	-2	-5
- Cc1ccc(S(=O)(=O)N(C)C)cc1NC(=O)CCNC(=O)c1ccccc1Cl
→ 11%	3%	-0.3%	-0.7	?	-32	26
- O=C(CN1C2=NCCCN2c2ccccc21)c1ccc(Br)s1
→ -20%	-1%	-1.2%	9.0	12%	-31	2
- Cn1c(=O)[nH]c(=O)c2c1nc(CN1CCN(c3ccccc3F)CC1)n2CCc1ccccc1
→ 6%	2%	-1.0%	0.3	27%	-5	-14
- CCC(=O)N1CCc2cc(S(=O)(=O)NCCC(=O)NCc3ccccc3Cl)ccc21
→ 17%	-5%	-1.6%&2.9%	2.4	11%	-4	3
- CC(/C=N/NC(=O)c1ccc(Cn2cc([N+](=O)[O-])cn2)o1)=C\c1ccccc1
→ 3%	2%	-6.0%	.	-1%	-17	-1
- CCOc1ccc(C(=O)N(CN2CCCC2=O)c2ccc(C)cc2)cc1
→ 6%	-24%	-0.7%	0.2	-26%	-1	19
- Cc1nc2c(nnn2Cc2ccccc2Cl)c(=O)[nH]1
→ 11%	4%	-1.7%	-0.3	-9%	-6	-5
- COC(=O)C(C)Oc1ccc(Cc2ncc(C(F)(F)F)cc2Cl)cc1 (stereo not given)
→ 5%	-4%	-0.5%	-1.3	-1%	-3	28
- CCOc1ccc(C2NC(=O)NC(C)=C2C(=O)OCc2ccccc2)cc1 (stereo not given)
→ 10%	-8%	-2.3%	-6.0	-8%[15.4 µM]	-3	-1
- CCN(C(=O)CCN1C(=O)c2ccccc2C1=O)C1CCCCC1
→ -4%	3%	-1.5%	-1.8	-35%[inhibitor]	-13	6
- O=C(CSc1nc2ccccc2s1)c1cc2ccccc2o1
→ ?	-23%	-3.2%	?	-9%	-16	28
- COC(=O)c1ccc(N2CCCCC2)c(NS(=O)(=O)c2ccc(C)cc2)c1
→ -4%	4%	-8.9%	-8.0	-24%	-10	-2
- O=C(N/N=C/c1c[nH]c2ccccc12)c1ccccc1O
→ 17%	-11%	.	-7.5	-14%	-20	11
- Cc1cccc(-c2n[nH]c(S(C)(=O)=O)c2C#N)c1
→ 30%	-12%	-5.9%	2.2	0%	-15	0
- CC(=O)c1sc(NC(=O)c2cc(S(=O)(=O)N3CCOCC3)ccc2F)nc1C
→ .	-12%	-6.0%	.	?	3	-34
- C=CCN(C(=O)C1CC(=O)N(C2CCCC2)C1)c1nc(-c2ccc(S(C)(=O)=O)cc2)cs1 (stereo not given)
→ .	40µM*	?	.	5%	?	4
- CNC(=O)c1ccsc1NC(=O)c1ccccc1
→ -8%	2%	-7.3%	8.2	-60%	-2	-1
- COc1cc(NC(=O)c2ccc(COCC(F)(F)F)cc2)cc(OC)c1OC
→ 11%	-6%	-3.3%	0.1	-5%	12	17
- CC(C)c1ccc(OCC(=O)NNC(=S)NC(=O)C2CC2)cc1
→ -15%	-16%	-1.2%	.	18%[15.4 µM]	-10	-3
- CC(C)(C)NC(=O)COC(=O)Cc1ccc(Cl)cc1
→ 9%	13%	-2.4%	-0.5	4%	-14	9
- O=C(Nc1ccccc1)c1cccc(S(=O)(=O)Oc2ccc([N+](=O)[O-])cc2)c1
→ 4%	1%	.	.	-21%[15.4 µM]	16	-15
- CCCc1n(CC)c2ccccc2[n+]1CC(O)COC1CCCCC1 (stereo not given)
→ 0%	15%	.	-1.1	11%[15.4 µM]	-7	5
- Cc1ccc(C)c(NC(=O)c2c(Cl)nc3ccccn23)c1
→ 1%	-9%	.	-0.7	20%	-4	2
- COc1ccccc1NC(=O)c1sc2nc(Cc3ccccc3)cc(C(F)(F)F)c2c1N
→ ?	9%	-1.1%	?	?	-18	13
- C=CC1=C(C(=O)O)N2C(=O)C(NC(=O)Cc3ccccc3)C2SC1 (stereo not given)
→ ?	-6%	-4.9%	0.2	-10%	9	-11
- O=C(CN1CCCCC1)NCCNC(=O)CN1CCCCC1
→ 21%	8%	-5.8%	3.1	-1%	7	-27
- Cc1ccc(C)c(NC(=S)NNC(=S)Nc2ccc(C(C)C)cc2)c1
→ 4.5µM*	-18%	.	-0.2	24%	-12	-14
- COc1ccc(C2=CC(=O)CC(c3ccc(F)cc3)C2)cc1 (stereo not given)
→ .	-26%	-3.6%	.	23%	-4	.
- Cc1ccc(CC(CC(=O)O)C(=O)Nc2ccc(Cl)cc2)cc1 (stereo not given)
→ -3%	1%	0.3%	3.7	-25%	25	-1
- COc1ccc(C)cc1-n1nnnc1SCC(=O)N1CCC(C(=O)Nc2nccs2)CC1
→ 4%	-8%	0.9%	4.7	1%	-8	23
- CCOC(=O)N1CCC(NC(=O)c2cc(S(=O)(=O)N3CCCC3)cn2C)CC1
→ 2%	-4%	-3.0%	2.8	16%	10	-4
- O=C(c1ccccc1-c1nc(-c2ccccc2)no1)N1CCOCC1
→ 6%	-24%	0.6%	-0.2	?	-8	3

Two entries from above, tab-delimited.
smiles	Sfp inh	gsp antag	ClpP mod	Menin-MLL FL inh	gsp ag	D2 PAM	TRPV1 PAM
Cc1ccc(CC(CC(=O)O)C(=O)Nc2ccc(Cl)cc2)cc1 (stereo not given)	-3%	1%	0.3%	3.7	-25%	25	-1
COc1ccc(C)cc1-n1nnnc1SCC(=O)N1CCC(C(=O)Nc2nccs2)CC1	4%	-8%	0.9%	4.7	1%	-8	23
